Source: PubChem BioAssay (National Center for Advancing Translational Sciences (NCATS))
Vaccinia Venus: inhibitors of vaccinia virus (Venus reporter); Vaccinia virus Venus reporter expression, fluorescence; Potency, µM (titrated, usually from 36.5 µM), for inactives: at the top dose activity change, negative = inhibition, usual class: inhibitors; 330,000 tested, 0.46% active; active means well fitted inhibition curve with a large enough effect; inconclusive means small, poorly fitted or top-dose-only effect; inactive means no such curve, though single readings can be large or run the other way; tested in A549 cells; note: nearly all actives have a fitted effect of over 30% in size; inactives centre near -10
VACV mCherry inh: vaccinia inhibition (mCherry reporter). Vaccinia virus mCherry reporter infection, fluorescence; about a quarter of the inactives have no number. Potency, µM (highest dose often 36.5 µM), without a hit: top-dose activity change, negative = inhibition, actives largely listed as inhibitors. 310,000 tested, 0.63% active; active = well fitted inhibition curve with a large enough effect; inconclusive = small, poorly fitted or top-dose-only effect; inactive = no such curve, though single readings can be large or run the other way; tested in A549 cells; note: nearly all actives have a fitted effect of over 35% in size; inactives centre near -10
* hit, by the source's call; i = inactive; u = inconclusive; x = no result given; [ ] = remark or other dose. % is set by controls: 0 for no effect and ±100 for the full control effect; potency is the fitted concentration of half-maximal effect. Rows are unselected, and some 0.87% of all compounds hit somewhere here.

The line under a structure holds: VACV mCherry inh	Vaccinia Venus
1	CC(=O)Nc1ccc(S(=O)(=O)Nc2ccc(N3CCOCC3)cc2)cc1
→ x	-16%
2	COc1ccccc1C(=O)NC(=S)/C=C1/N(C)c2ccccc2C1(C)C
→ u	-9%
3	COc1ccc(N(C(=O)c2ccc(Br)o2)C2C=CS(=O)(=O)C2)cc1 (stereo not given)
→ -19%	-12%
4	COc1ccc(CCNC(=O)c2cc(S(=O)(=O)N(C)c3ccccc3)ccc2Cl)cc1
→ -18%	-15%
5	CCN(CC(=O)NCc1ccc(Cl)cc1)C(=O)c1oc2ccccc2c1C
→ i	-10%
6	CCOC(=O)CCN(c1ccccc1)S(=O)(=O)c1ccc(-c2ccc(=O)[nH]n2)s1
→ i	-9%
7	Cc1ccc(NCc2ccccc2O)c(C)c1
→ u	-26%
8	O=C(NCC(c1cccs1)N1CCOCC1)C1CCN(S(=O)(=O)c2cccc(C(F)(F)F)c2)CC1 (stereo not given)
→ u	u
9	CCN(CC)c1ccc(NC(=O)CSc2nc3ccccc3c(=O)[nH]2)cc1
→ x	2%
10	N#CC1=C(SCC(=O)Nc2nccs2)NC(=O)CC1c1ccccc1 (stereo not given)
→ -19%	-4%
11	OCCC1CN(Cc2ccccc2-c2ccco2)CCN1Cc1ccccc1 (stereo not given)
→ u	-24%
12	Cc1ccc(C)c(NC(=O)c2cc(S(=O)(=O)N3CCCCC3)c[nH]2)c1
→ -1%	-13%
13	Cc1nc(-c2ccc(F)cc2)c(CC(=O)N(C)CC(=O)Nc2cccc(F)c2)s1
→ i	-10%
14	COc1cc2c(C)nc(C)c(C#N)c2cc1OC
→ -21%	-16%
15	Cc1cccc(C(O)(C(=O)NNC(=O)CN2CCN(C)CC2)c2cccc(C)c2)c1
→ -24%	-12%
16	CCCCc1ccc(NC(=O)Nc2cc(C)nn2C)cc1
→ -15%	-11%
17	Cc1nc(-c2cccc(C(F)(F)F)c2)sc1C(=O)O
→ -15%	-11%
18	CC(Sc1nnnn1-c1ccccc1)C(=O)Nc1ccc(N2CCN(C)CC2)cc1 (stereo not given)
→ -17%	-7%
19	COc1ccc(Cl)cc1S(=O)(=O)N1CCCC(C(=O)NCc2ccccn2)C1 (stereo not given)
→ -13%	5%
20	OC[C@@H]1O[C@H](n2cnc3c(SCc4ccccc4)ncnc32)[C@H](O)[C@H]1O
→ -23%	-23%
21	CCCC(=O)N(Cc1cc(=O)[nH]c2ccccc12)c1ccc(C)cc1
→ i	-6%
22	COc1ccc(C(=O)OCC(=O)Nc2cc(S(=O)(=O)N3CCOCC3)ccc2N2CCCC2)cc1
→ -5%	-8%
23	CCOc1ccc(C(C(=O)NCC2CCCO2)N(Cc2cccnc2)C(=O)c2snc(C(N)=O)c2N)cc1 (stereo not given)
→ -10%	0%
24	Cc1ccccc1-n1nc(C(=O)O)c(C)c(C#N)c1=O
→ i	-4%
25	CCOc1cc(N2CCOCC2)c(OCC)cc1NC(=O)C(NC(=O)c1ccco1)C(C)C (stereo not given)
→ -10%	-15%
26	Cc1ccc(NC(=O)CSc2nc3ccccc3c3nc(CCn4c(C)nc5ccccc54)nn23)cc1F
→ u	u
27	CN(c1ccccc1)S(=O)(=O)c1ccc(C(=O)OCC(=O)NCc2ccco2)cc1
→ x	-9%
28	Cc1cccc(C(=O)Nc2nccs2)c1[N+](=O)[O-]
→ i	-11%
29	Cc1ccc2c(Cl)c(C)c(N3CCCC3)nc2n1
→ -24%	-23%
30	Clc1cccc(C2NCc3ccccc3-n3cccc32)c1 (stereo not given)
→ u	-10%
31	OC1(c2ccccc2F)CCN(Cc2nnc(-c3ccccc3)o2)CC1
→ i	-4%
32	NC1=NC(=O)C2(COC(c3ccncc3)OC2)S1 (stereo not given)
→ -4%	-11%
33	N#CCC(=O)Nn1c(=S)[nH]c2ccccc2c1=O
→ 12%	5%
34	CN1CC2([N+](=O)[O-])CC=C(Cl)C([N+](=O)[O-])(C1)C2 (stereo not given)
→ -17%	-1%
35	O=C(NCc1ccc2c(c1)CCN2C(=O)c1ccc(F)cc1)c1cc2ccccc2[nH]1
→ -19%	-4%
36	NCC(c1ccc(Cl)cc1Cl)c1c[nH]c2ccccc12 (stereo not given)
→ u	-10%
37	CC1(C)CCC(c2ccc(Cl)cc2)=C(CN2CCN(c3ccc(C(=O)NS(=O)(=O)c4ccc(N[C@H](CCN5CCOCC5)CSc5ccccc5)c(S(=O)(=O)C(F)(F)F)c4)cc3)CC2)C1
→ u	10µM*
38	COC(=O)CNc1cccc(C(F)(F)F)c1
→ i	-9%
39	O=C(NCCN1CCC(n2c(=O)[nH]c3ccccc32)CC1)c1ccc(F)c(C(F)(F)F)c1
→ 0%	1%
40	CCN=C1SC(C(N)=O)CC(=O)N1CC (stereo not given)
→ -6%	-2%
41	Cc1cc(C)cc(-n2nnnc2SCC(=O)Nc2nc(-c3ccc(F)cc3)cs2)c1
→ -15%	-25%
42	CN1C(C(=O)c2ccccc2)=C(OC(=O)c2ccc(Br)cc2)c2ccccc2S1(=O)=O
→ -24%	-9%
43	Cc1cccc(N2C(=O)CN(Cc3cccs3)C2=S)c1
→ 0%	-4%
44	CC(O)Cn1nc([N+](=O)[O-])nc1N (stereo not given)
→ i	-1%
45	CC(OC(=O)CCc1nc2ccccc2c(=O)[nH]1)C(=O)c1ccc(Br)cc1 (stereo not given)
→ i	-1%
46	CSc1ccccc1NC(=O)CN(C)C(C)C(=O)NC(=O)NC1CCCCC1 (stereo not given)
→ -5%	-1%
47	Brc1cc2c(cc1Br)OCCOCCOCCOCCO2
→ i	6%
48	Cn1cnc(C(=O)N2CCN(C(=O)OC(C)(C)C)CC2)c1C(=O)N1CCN(C(=O)OC(C)(C)C)CC1
→ i	-11%
49	CCOC(=O)c1cc2c(ccn2C)n1Cc1ccccc1C
→ -2%	0%
50	O=C(Nc1cnccn1)c1cccc(C(F)(F)F)c1
→ i	-9%

Compound profiles (already shown). Order of screens: VACV mCherry inh	Vaccinia Venus
O=C(Nc1cnccn1)c1cccc(C(F)(F)F)c1 in the list: i	-9%
CCOC(=O)c1cc2c(ccn2C)n1Cc1ccccc1C in the list: -2%	0%
CC(OC(=O)CCc1nc2ccccc2c(=O)[nH]1)C(=O)c1ccc(Br)cc1 (stereo not given) in the list: i	-1%
Cc1cccc(N2C(=O)CN(Cc3cccs3)C2=S)c1 in the list: 0%	-4%
CN1C(C(=O)c2ccccc2)=C(OC(=O)c2ccc(Br)cc2)c2ccccc2S1(=O)=O in the list: -24%	-9%

Next section
The line under a structure holds: VACV mCherry inh	Vaccinia Venus
51	O/N=C(/CI)c1ccc2ccccc2c1
→ -22%	-17%
52	O=C(NCC1CCCN(C(=O)c2cccnc2)C1)c1ccc(-c2ccccc2)cc1 (stereo not given)
→ i	-8%
53	COCCNC(=O)/C(C#N)=C/c1ccc(SC)cc1
→ -23%	2%
54	CCCN1Cc2cccc(C(=O)Nc3ccc(OC)cc3OC)c2C1=O
→ i	-9%
55	C[N+]1(CC(=O)c2ccc3c(c2)CCCC3)CCOCC1
→ -15%	7%
56	CCOC(=O)C1=C(C)Nc2ncnn2C1c1cc(Br)ccc1F (stereo not given)
→ -15%[1.46 µM]	u
57	CC(C)(C)OC(=O)N1CCc2onc(-c3ccc(Cl)cc3)c2C1=O
→ -13%	-17%
58	O=C(NCCCN1CCCC1=O)c1ccc2c(c1)NC(=O)C(N1CCOCC1)S2 (stereo not given)
→ i	-4%
59	Cc1cccc(C(=O)NC(=S)NNC(=O)COc2ccc(Cl)cc2)c1
→ -8%	-5%
60	CCOC(=O)Cn1c(=O)n(CC2CCCO2)c2nc(-c3cccc(C)c3)nc(C(N)=O)c21 (stereo not given)
→ -14%	-11%
61	Cc1cc(C(=O)NCc2ccccc2)c2c(C)nn(-c3cccc(F)c3)c2n1
→ -10%	-19%
62	COc1cc(/C=C/c2nc3ccccc3c(=O)n2-c2ccc(Br)c(C)c2)ccc1O
→ -29%	-26%
63	CCOP(=O)(OCC)C(NC(=O)Nc1ccc(Cl)cc1)C(N)=O (stereo not given)
→ -6%	0%
64	COc1ccccc1/C=N/NC(=O)Cn1cnc([N+](=O)[O-])n1
→ -2%	0%
65	Cc1cccc(-c2nnc(SCC(=O)Nc3cc(C)on3)n2C)c1
→ -3%	0%
66	CCc1ccccc1NC(=O)CCS(=O)(=O)c1ccc2c(c1)CCCN2C(C)=O
→ -5%[7.34 µM]	6%[7.34 µM]
67	Cc1ccc(N(C)S(=O)(=O)c2ccc3[nH]c(=O)ccc3c2)cc1
→ 5%	-1%
68	O=[N+]([O-])c1nccn1CC(O)CO (stereo not given)
→ 7%	-1%
69	COc1ccccc1NS(=O)(=O)c1cccc(C(=O)N/N=C/c2ccccc2OCC(=O)O)c1
→ -21%	-9%
70	Cc1cccc(NC(=S)N(CCc2nc3cc(C)c(C)cc3[nH]2)Cc2cccnc2)c1
→ i	-16%
71	COC(=O)CSc1nc(N2CCCCC2)c2c(c1C#N)CCCC2
→ -24%	-21%
72	Cn1c(OCc2ccc3c(c2)OCO3)nc2c1c(=O)n(Cc1ccc(Cl)c(Cl)c1)c(=O)n2C
→ x	-16%
73	COc1cccc(CN2CCNC(=O)C2CC(=O)N(C)CC2CCOCC2)c1 (stereo not given)
→ -13%	-12%
74	Cc1nn(C)c(C)c1C1C(C#N)=C(N)OC2=C1C(=O)CCC2 (stereo not given)
→ -7%	-4%
75	COc1ccc(NC(=O)c2ccc(NC3=NC4CS(=O)(=O)CC4S3)cc2)cc1 (stereo not given)
→ -11%	-10%
76	O=C(NCCc1ccc(Cl)cc1)C(=O)Nc1cc2c3c(c1)CC(=O)N3CCC2
→ -3%	-17%
77	COc1ccc(CCNC(=O)c2cc(=O)[nH]c3ccc(Br)cc23)cc1OC
→ 0%	-19%
78	CC(=O)C1=C(c2ccc(Cl)c(Cl)c2)N(C(C)=O)n2cnnc2S1
→ u	-26%[7.34 µM]
79	O=C(NCCSc1c[nH]c2ccccc12)c1ccccc1Cl
→ -13%	-13%
80	COc1ccc(N2C(=O)N3[C@H](c4ccc(Br)cc4)[C@@H]4C(=O)N(C(C)(C)C)C(=O)[C@@H]4[C@]3(Cc3ccccc3)C2=O)cc1
→ i	-16%
81	Cc1ccc(S(=O)(=O)N2CCN(C(=O)c3ccc4nc[nH]c4c3)CC2)cc1
→ -18%	-14%
82	CCOC(=O)Nc1ccc2c(c1)N(C(=O)CCN1CCN(CCO)CC1)c1ccccc1S2
→ -29%	-16%
83	Cc1ccc(C)c(CN2CCc3nnc(CNC(=O)c4cc(C)oc4C)n3CC2)c1
→ -20%	-13%
84	COc1ccc(NC(=O)Cn2cnc3ccc(S(=O)(=O)N4CCC(C)CC4)cc3c2=O)c(OC)c1
→ i	-10%
85	CC(C)C(=O)Nc1cccc(S(=O)(=O)c2cccc(NC(=O)C(C)C)c2)c1
→ x	u
86	O=C1NCN(c2ccccc2)C12CCN(C(c1cccc3ccccc13)c1nnnn1-c1ccc3c(c1)OCCO3)CC2 (stereo not given)
→ i	-17%
87	O=C1C(Cl)=C(Nc2ccccc2)C(=O)c2ccccc21
→ i	-1%
88	COc1ccc(C2=NC(C)(C)N(CC(=O)Nc3cc(OC)cc(OC)c3)C2=O)cc1
→ i	-8%
89	CN(CCCN1CCOCC1)C(=O)c1cc(COc2c(F)cccc2F)on1
→ -13%	-18%
90	Cn1c(=O)c2c(nc(NCCCO)n2Cc2cccc(C(F)(F)F)c2)n(C)c1=O
→ -9%[1.46 µM]	-22%

Overlap with the part before: two compounds, then new ones.
The line under a structure holds: VACV mCherry inh	Vaccinia Venus
89	CN(CCCN1CCOCC1)C(=O)c1cc(COc2c(F)cccc2F)on1
→ -13%	-18%
90	Cn1c(=O)c2c(nc(NCCCO)n2Cc2cccc(C(F)(F)F)c2)n(C)c1=O
→ -9%[1.46 µM]	-22%
91	Cc1cccc(/C=N/NC(=O)c2cccc(NC(=O)c3ccccc3)c2)n1
→ -22%	-6%
92	Cc1ccc(OCC(=O)N/N=C/c2cccnc2)cc1C
→ i	-8%
93	S=C(Nc1cccc(Br)c1)N1CCn2cccc2C1c1cccnc1 (stereo not given)
→ -19%	-7%
94	CCN(CC)S(=O)(=O)c1ccc(C(=O)NCCSc2c(-c3ccc(F)cc3)[nH]c3ccccc23)cc1
→ u	-29%
95	CSc1cccc(NS(=O)(=O)c2ccc3[nH]cc(C(=O)N4CCCCCC4)c(=O)c3c2)c1
→ -8%	0%
96	Cc1cc(NS(=O)(=O)c2ccccc2)ccc1NS(=O)(=O)c1ccccc1
→ -2%	-8%
97	COCCNC(=O)C1(C)CCCN(C(=O)c2cc(OC)c(OC)c(OC)c2)C1 (stereo not given)
→ 2%	-1%
98	CN(C)c1ccc(NC2=C(Cl)C(=O)c3ccccc3C2=O)cc1
→ u	11µM*
99	CC(=O)N1c2ccc(S(=O)(=O)NCCC(=O)NCCc3ccc(Cl)cc3)cc2CC1C (stereo not given)
→ 11%[7.34 µM]	15%[7.34 µM]
100	C[C@@H]1C(c2ccc(F)cc2)=NN(c2ccc(Br)cc2)[C@H]1C(=O)N1CCOC1=O
→ u	-16%
101	CCC(C(=O)c1ccc2ncccc2c1)c1ccccc1 (stereo not given)
→ -2%	-11%
102	COC(=O)c1nnn(CC(=O)Nc2cccc(Cl)c2C)c1C(=O)OC
→ -13%	-5%
103	Cn1c(=O)n(C)c2cc(CNCc3ccccc3)ccc21
→ -11%	-10%
104	FC(F)(F)c1ccccc1-c1nc(N2CCNCC2)c2ccccc2n1
→ -13%	-8%
105	CCC(=O)c1ccc2c(c1)N(CCCN(C)C)c1ccccc1S2
→ u	-26%
106	CCc1nnc(SCC(=O)Nc2ccccc2)nc1CC
→ -13%	-3%
107	COc1ccc(N2CCN(C(=O)CCCCCn3c(=S)[nH]c4ccc(N5CCOCC5)cc4c3=O)CC2)cc1
→ u	u
